HSV augment – enhancers of HSV replication in host cells, fold increase, host cell viability; HSV replication augmentation in cells; maximum fold increase; 220,000 compounds, 0.005% hits; AID 1956, 2009;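 active = peak rise of 1.5-fold or more in the series; tested in PC3 cells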;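 note: first round at 10 µM; read as green reporter fluorescence; hits show the peak of a series up to 25 µM; 1 = signal of infected wells without compound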
PKD1 kinase inh – inhibitors of human PKD1 kinase, biochemical, fluorescence polarization; Serine/threonine-protein kinase D1 (Homo sapiens), Q15139; PKD1 kinase fluorescence polarization assay; inhibition, %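 (about 10 µM by stock and volumes)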; 200,000 compounds, 0.056% hits; AID 797, 2007;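 active = inhibition of 50% or more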;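 note: controls were vehicle for no effect and a reference inhibitor for full effect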
RGS16-Gao HTS – modulators of RGS16 binding to Galphao, primary screen, biochemical, human proteins, multiplexed bead flow cytometry. bead-based flow cytometry RGS16-Galphao binding, fluorescence; actives lie on both sides. binding response (% of control), % at 10 µM. 220,000 compounds, 0.38% hits. AID 1441, 2008;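 active = below 25% or above 175%, edge rows of some plates excepted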;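 note: Galphao activated by GDP with aluminum fluoride before binding; 100% = wells without compound and 0% = beads without RGS; some results beyond the cut were filed as inactive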
Target sequence (O15492 whole entry, looked up): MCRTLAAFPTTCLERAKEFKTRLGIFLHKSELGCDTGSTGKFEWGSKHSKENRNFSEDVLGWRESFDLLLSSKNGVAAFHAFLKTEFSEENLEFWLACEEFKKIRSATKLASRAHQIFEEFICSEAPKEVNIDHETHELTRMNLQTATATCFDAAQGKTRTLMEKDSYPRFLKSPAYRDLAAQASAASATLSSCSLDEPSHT
Target sequence (P09471 whole entry, looked up): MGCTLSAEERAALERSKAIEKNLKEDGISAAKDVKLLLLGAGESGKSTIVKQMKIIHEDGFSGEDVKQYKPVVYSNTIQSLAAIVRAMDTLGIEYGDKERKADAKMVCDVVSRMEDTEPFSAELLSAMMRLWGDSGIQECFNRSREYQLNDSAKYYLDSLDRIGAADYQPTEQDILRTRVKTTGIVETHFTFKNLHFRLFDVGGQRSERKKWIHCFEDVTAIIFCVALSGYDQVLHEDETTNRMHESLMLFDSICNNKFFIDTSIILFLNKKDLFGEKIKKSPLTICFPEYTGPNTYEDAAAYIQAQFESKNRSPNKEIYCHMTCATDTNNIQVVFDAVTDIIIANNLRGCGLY
GALR2 ag – GALR2 receptor agonists, primary screen, cell-based; Galanin receptor type 2 (Homo sapiens), O43603; GALR2-expressing cells, agonist activation read-out; activation, %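 (tested at 5 µM)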; 140,000 compounds, 0.48% hits; AID 803, 2007;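 active = above mean plus 3 SD of all compounds, about 5% in these data, not always enough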;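 note: 0% = vehicle buffer wells and 100% = reference agonist at full effect; tested in CHO reporter cells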
Target sequence (O43603 whole entry, looked up): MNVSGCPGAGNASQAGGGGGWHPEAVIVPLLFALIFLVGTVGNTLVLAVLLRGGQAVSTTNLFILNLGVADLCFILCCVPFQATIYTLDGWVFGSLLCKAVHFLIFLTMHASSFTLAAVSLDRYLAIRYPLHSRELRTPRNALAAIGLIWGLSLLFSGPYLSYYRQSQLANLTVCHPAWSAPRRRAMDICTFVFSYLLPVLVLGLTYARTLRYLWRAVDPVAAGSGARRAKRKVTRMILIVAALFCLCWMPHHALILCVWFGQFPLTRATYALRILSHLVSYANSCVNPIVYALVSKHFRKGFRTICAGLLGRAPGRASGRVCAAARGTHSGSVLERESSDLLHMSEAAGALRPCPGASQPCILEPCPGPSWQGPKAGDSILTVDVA
Insulin prom inh – inhibitors of insulin promoter-driven GFP, primary screen, imaging, TRM-6 cells (human fetal islet line), eGFP reporter, cell count | 130,000 compounds, 0.9% hits | inhibition, % at 2 µM | reporter expression induced with tamoxifen | AID 1273, 2008;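 active = inhibition above the mean plus 3 SD, with well images judged a real hit on visual review, cut at about 60% in these data, passing the limit was not always enough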
Insulin prom inh cell count – second read-out of Insulin prom inh, no call of its own (marks repeat the call); normalized cell count, %; measured here: cell count, toxicity; reference of the scale not given here;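 cells exposed to compound for 48 h; stained nuclei by imaging scaled within each plate; lower means fewer cells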
HSV augment primary fold – second read-out of HSV augment, no call of its own (marks repeat the call); fold increase; compound at 10 µM; measured here: primary screen fold increase 10 uM; tested in PC3 cells;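 GFP signal in the first replicate; 1 = infected wells without compound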
The depositor's hits bear a star; i = inactive; . = not tested or not shown.

Molecule,HSV augment,HSV augment primary fold,PKD1 kinase inh,RGS16-Gao HTS,GALR2 ag,Insulin prom inh,Insulin prom inh cell count
Cc1oc2c(C)c(O)ccc2c(=O)c1-c1cnn(-c2ccccc2)c1,i,0.96,12.4,100.7,0.9,-46.1,69.7
COCCN(C(=O)Cn1nnc2ccccc21)C(C(=O)NC1CCCCC1)c1ccc(OC)cc1OC (stereo not given),i,0.77,-2.7,98.7,-0.2,-87.5,72.5
Cc1nc2cc(NC(=O)c3ccc(N4C(=O)CCC4=O)cc3)ccc2s1,i,0.98,-2.0,162.2,.,-55.6,68.0
CS(=O)(=O)N(CC(=O)NCCC1=CCCCC1)c1ccc2c(c1)OCO2,i,0.79,5.0,97.9,-0.7,8.1,100.0
O=C(O)CCN1C(=O)c2ccc(NC(=O)c3cccs3)cc2C1=O,i,1.08,-6.3,92.8,-0.9,-331.2,80.4
Cc1ncc(CN2CCCC(CCC(=O)NCc3ccc(F)c(F)c3)C2)s1 (stereo not given),i,0.95,-5.6,98.8,.,.,.
CC(Sc1nc(-c2ccco2)nc2c1c(=O)n(C)c(=O)n2C)C(=O)O (stereo not given),i,1,.,103.4,.,.,.
COc1ccc(Cl)cc1N1C(=O)C2CCCN2C1c1ccccc1F (stereo not given),i,0.92,-2.8,96.8,-2.0,.,.
O=C(Nc1nnc(SCc2ccc(F)cc2)s1)C1CC(=O)N(Cc2ccccc2)C1 (stereo not given),i,0.84,-11.0,108.1,-1.6,1.3,103.6
COc1c(F)c(F)c(C(=O)Nc2ccccc2N2CCN(C(C)=O)CC2)c(F)c1F,i,0.96,-0.9,111.9,-1.1,15.4,147.4
C=CCNc1nc(Nc2ccc([N+](=O)[O-])cc2)nc(N2CCCC2)n1,i,0.73,0.5,99.9,.,58.8,123.3
Cc1cc(Oc2nc3c(C)cccn3c(=O)c2/C=C(\C#N)S(=O)(=O)c2ccc(Cl)cc2)ccc1Cl,i,0.93,-14.4,105.0,-1.0,.,.
COc1ccc(N(CC(=O)N/N=C/c2cccs2)S(=O)(=O)c2ccccc2)cc1,i,0.97,0.0,104.4,.,-21.4,80.5
C/C(=C\c1ccco1)C1C(C#N)=C(N)Oc2n[nH]c(-c3ccc(C)cc3)c21 (stereo not given),i,0.88,10.3,94.3,-2.1,-15.4,113.2
O=C1NC(c2ccncc2)C(C(=O)c2cccs2)C(O)(C(F)(F)F)N1 (stereo not given),i,0.91,-5.8,106.5,-0.4,67.4,66.4
CC1(c2nnc(-c3ccncc3)o2)CC(c2c(Cl)cccc2Cl)=NO1 (stereo not given),i,1.14,.,103.0,.,.,.
COc1ccc(NC2=C3CC(C)CC=C3N(c3ccc(OC)cc3)C2=O)cc1 (stereo not given),i,0.86,-0.7,93.9,.,.,.
Cc1ccc(S(=O)(=O)N(C)c2c(C)ccc(S(N)(=O)=O)c2C)cc1,i,1.04,-1.2,95.5,.,0.0,101.4
Cc1noc(C)c1C(=O)NC(C)C12CC3CC(CC(C3)C1)C2 (stereo not given),i,1,-6.0,99.8,.,0.0,123.3
COC(=O)c1cccc(NC(=O)c2cccnc2)c1,i,0.95,-1.4,98.8,-0.3,13.2,57.5

Of the compounds above, these have an aryl thioether with sulfur outside any ring.
Molecule,HSV augment,HSV augment primary fold,PKD1 kinase inh,RGS16-Gao HTS,GALR2 ag,Insulin prom inh,Insulin prom inh cell count
CC(Sc1nc(-c2ccco2)nc2c1c(=O)n(C)c(=O)n2C)C(=O)O (stereo not given),i,1,.,103.4,.,.,.
O=C(Nc1nnc(SCc2ccc(F)cc2)s1)C1CC(=O)N(Cc2ccccc2)C1 (stereo not given),i,0.84,-11.0,108.1,-1.6,1.3,103.6

Sorted by value in PKD1 kinase inh (descending): three of the compounds above.
| SMILES | PKD1 kinase inh |
| --- | --- |
| Cc1oc2c(C)c(O)ccc2c(=O)c1-c1cnn(-c2ccccc2)c1 | 12.4 |
| Cc1ncc(CN2CCCC(CCC(=O)NCc3ccc(F)c(F)c3)C2)s1 (stereo not given) | -5.6 |
| Cc1cc(Oc2nc3c(C)cccn3c(=O)c2/C=C(\C#N)S(=O)(=O)c2ccc(Cl)cc2)ccc1Cl | -14.4 |

Compounds from the list above that have a furan ring, fused or not:
Molecule,HSV augment,HSV augment primary fold,PKD1 kinase inh,RGS16-Gao HTS,GALR2 ag,Insulin prom inh,Insulin prom inh cell count
CC(Sc1nc(-c2ccco2)nc2c1c(=O)n(C)c(=O)n2C)C(=O)O (stereo not given),i,1,.,103.4,.,.,.
C/C(=C\c1ccco1)C1C(C#N)=C(N)Oc2n[nH]c(-c3ccc(C)cc3)c21 (stereo not given),i,0.88,10.3,94.3,-2.1,-15.4,113.2

Other entries:
Molecule,HSV augment,HSV augment primary fold,PKD1 kinase inh,RGS16-Gao HTS,GALR2 ag,Insulin prom inh,Insulin prom inh cell count
Cc1cc(C(=O)O)ccc1-n1c(C)ccc1C,.,.,2.8,92.3,-2.0,50.0,85.5
COc1cc2c(C(=O)NCc3ccc4c(c3)OCO4)cn(C)c(=O)c2cc1OC,i,0.983,-8.6,104.7,-2.5,.,.
Cc1ccc(Cl)cc1N1CCN(C(c2ccc(C#N)cc2)c2nnnn2C2CCCC2)CC1 (stereo not given),i,0.88,-4.6,107.4,0.4,28.6,151.0
CN(C(=O)COC(=O)/C=C/c1ccc(S(=O)(=O)N2CCc3ccccc32)cc1)C1CCS(=O)(=O)C1 (stereo not given),i,0.75,-2.0,99.8,.,0.0,122.2
C/C(=N\NC(=O)Cc1c(C)[nH][nH]c1=O)c1cccc(Br)c1,i,0.84,.,100.6,.,.,.
CCOc1cc2[nH]c(=S)n(Cc3ccc(C(=O)NCCOC)cc3)c(=O)c2cc1OCC,i,0.88,-4.2,110.4,-1.2,-3.2,145.1
CC(C)(C)c1cc[n+](-c2nc([O-])sc2C=O)cc1,i,1.02,0.3,56.6,-1.6,22.2,113.9
COCCN(C(=S)Nc1ccc(C)cc1C)C(C)c1cccs1 (stereo not given),i,1.04,-0.1,97.5,.,-14.3,67.8
CCOc1ccc(C(=O)NC(C(=O)NCc2ccccn2)C(C)C)cc1 (stereo not given),.,.,-2.9,105.3,-1.4,-42.9,22.1
CCOc1ccc(S(=O)(=O)NCc2ccc(F)cc2)c2cccnc12,i,1.03,19.2,74.2,2.9,-18.8,77.6
Nc1nc(NCCCN2CCOCC2)nc(Nc2ccc(Cl)cc2)c1[N+](=O)[O-],i,0.66,.,97.6,.,.,.
COc1ccccc1NC(=O)CSc1ncnc2c1oc1ccccc12,i,0.83,4.8,100.4,-1.0,.,.
O=C(OCC(=O)N(C1CCCCC1)C1CCCCC1)c1cnccn1,.,.,-6.2,102.8,0.6,.,.
COc1ccc(NC(C)=O)cc1S(=O)(=O)N1CCN(C/C=C/c2ccccc2)CC1,i,1.01,-2.4,98.5,.,.,.
CC(C)=C1SC(N2CCN(c3cccc(C)c3)CC2)=NC1=O,i,0.94,0.9,94.9,-2.7,-4.1,111.8
O=C(COC(=O)/C=C/c1ccc(S(=O)(=O)N2CCCCCC2)cc1)NCc1ccccc1Cl,i,0.86,-3.1,101.4,-0.4,-27.3,114.4
CO/C(N)=C(\C#N)N=Cc1ccccc1Cl,i,0.95,-6.9,101.5,.,-26.7,121.5
O=C(Nc1ccccc1)Nc1ccc(Cl)c([N+](=O)[O-])c1,i,0.74,-2.9,111.9,-0.2,7.1,135.2
OC1(c2cccs2)CN(c2ccc(Cl)cc2)C2=[N+]1CCCS2 (stereo not given),i,0.93,-2.3,80.9,.,-41.7,115.1
CCN1C(=O)NC2C1N(S(C)(=O)=O)CCN2S(C)(=O)=O (stereo not given),i,0.99,-12.4,104.0,-1.2,-5.0,84.6
CN(c1ccccc1)S(=O)(=O)c1cc(C(=O)OCC(N)=O)ccc1Cl,i,0.97,-5.4,103.9,.,.,.
COc1ccccc1NC(=O)N1CCN(c2ccc3nncn3n2)CC1,.,.,3.1,97.9,.,.,.
CC(C)C(=O)Nc1ccc(C(=O)NNC(=O)CCCOc2ccc(Cl)cc2Cl)cc1,i,0.73,9.0,92.3,-1.8,.,.
CC(=O)c1c(C(C)=O)c(C)n(Cc2ccc3c(c2)OCO3)c1C,i,1.1,-0.3,105.3,-0.3,.,.
Cc1ccc2oc(=O)c(/C=C(\O)c3ccco3)nc2c1,i,0.93,.,95.5,.,.,.
COCCCNC(=S)N(Cc1ccccc1)Cc1ccc(F)cc1,i,0.9,-4.3,103.4,.,.,.
CCCCOC(=O)Nc1nnc(CC)s1,i,0.88,-1.5,103.6,-1.2,20.0,95.6
CN(C)c1cccc(N(C)C)c1CNC(=O)C(C)(C)C,i,1.22,.,104.9,.,.,.
COc1ccc2cc(CCNC(=O)C(C)(C)C)c(=O)[nH]c2c1,i,0.93,7.5,98.6,-1.7,0.0,80.4
CC(C(=O)N1CCN(c2ccccc2)CC1)N1C(=O)C2CC=CCC2C1=O (stereo not given),i,0.9,-10.8,102.0,-5.7,-16.1,58.5
Cc1nn(Cc2ccccc2Cl)c2sc(C(=O)NC(C)(C)C)cc12,i,0.963,-2.6,94.7,-1.0,52.2,116.1
Cn1ncc2c(=O)[nH]cnc21,i,1.18,-2.6,109.2,.,-40.0,173.4
CCOC(=O)C(=O)N1CCC(C(=O)OC)CC1,i,1.28,3.1,102.2,.,.,.
CCCCC1=CC2=CC(=O)C(C)(OC(=O)CC)C(=O)C2=CN1C(CO)CO (stereo not given),i,0.85,.,101.2,.,.,.
COc1ccccc1-n1nnnc1SCc1cc2c(cc1Br)OCO2,i,0.89,4.1,93.2,-2.1,27.3,138.0
CCOC(=O)c1c(NC(=O)C2=C(C)NC(=S)NC2c2ccc(F)cc2F)sc(C)c1C (stereo not given),i,1.01,7.2,94.6,1.5,-62.5,96.2
Cc1onc2c(=O)n(-c3ccccc3)nc(-c3ccccc3)c12,i,1.22,.,97.3,.,.,.
CCOC(=O)N1CCC(NC(=O)c2cc(C(=O)NCc3ccc(F)cc3)ccc2CO)CC1,i,0.96,1.6,109.1,0.0,.,.
Cc1ccc(S(=O)(=O)c2nc(Nc3ccccc3N3CCOCC3)sc2Cl)cc1,i,1.14,-7.4,85.5,-1.1,13.5,56.3
CCCN1C(=O)/C(=C/c2nc3ccccc3c(=O)[nH]2)c2ccccc21,i,0.78,-7.3,100.9,1.2,-10.3,102.2
Cc1cc(OC(C)C)nc(-c2ccccc2O)n1,i,0.96,-1.3,112.6,0.0,-4.2,73.3
CCO[C@@H]1OC(C(=O)O)=C[C@H](c2ccc(C(F)(F)F)cc2)[C@H]1CCCO,i,1.01,0.4,99.6,.,.,.
O=C(NCCc1c[nH]c2ccccc12)c1cncc(Br)c1,i,0.88,-6.7,99.8,.,.,.
CCOc1cc(C(=O)Nc2ccc(F)cc2)cc(Br)c1OC,i,0.97,0.4,169.3,-1.0,-27.6,90.3
O=C(O)c1ccc(N/N=C/c2cn(Cc3ccccc3F)c3ccccc23)cc1,i,0.83,.,100.3,.,.,.
CC(=O)c1ccc(N2CCN(C(=O)c3cccc(Oc4ccccc4)c3)CC2)cc1,i,0.96,-3.3,74.0,.,50.0,76.5
N#Cc1nc(Cc2cccc3ccccc23)oc1NCCCn1ccnc1,i,0.96,-11.2,97.3,0.1,.,.
COCCCNC(=O)CCn1c(=O)c2ccccc2n(Cc2cccc([N+](=O)[O-])c2)c1=O,i,0.95,4.8,100.2,.,-6.7,124.2
COc1cccc(CN2CCNC(=O)C2CC(=O)NCc2cn3ccccc3n2)c1OC (stereo not given),i,0.92,4.6,115.0,.,.,.
O=C(COC(=O)c1cc(S(=O)(=O)N2CCOCC2)ccc1O)NCC1CCCO1 (stereo not given),i,0.91,1.9,96.4,5.3,57.1,50.8
Cc1ccc(NC(=O)COc2ncnc3cc([N+](=O)[O-])ccc23)cc1S(=O)(=O)N1CCOCC1,i,0.96,.,103.6,.,.,.
CC(C)Cn1c(N)c(C(=O)COC(=O)c2ccc([N+](=O)[O-])o2)c(=O)n(C)c1=O,i,0.98,4.4,104.3,.,-25.0,81.7
CCOc1ccc(-c2[nH]nc3c2C(c2cccnc2)C(C#N)=C(N)O3)cc1 (stereo not given),i,1.02,-0.7,101.6,-1.9,-7.1,50.2
Cc1ccc(NC(=O)c2ccc(OCC3CCCO3)cc2)c(C)c1 (stereo not given),i,0.94,1.0,97.6,-2.6,.,.
COc1ccc(Cl)cc1Nc1nc(N)nc(C(F)(F)F)n1,i,0.9,-9.4,104.8,-0.7,-14.3,111.1
